From PubChem
D2 ag – human D2 receptor agonism in beta-arrestin assay; activation, % (no concentration beside the values); AID 624465; 360,000 compounds, 0.084% hits; DiscoveRx PathHunter D2 beta-arrestin, luminescence, 90 min; 100% = 57 uM dopamine signal; P14416; in the data active = activation above about 40%; inconclusive = about 15% to 40%; inactive = below about 15%; further: compound concentration not given in the record; the text of the record calls up to 30% inactive
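Agonist mode: compounds alone added to overnight-plated D2 PathHunter cells for 90 min at 37 C, with 57 uM final dopamine (EC100) defining full response. Beta-arrestin recruitment detected by chemiluminescent reagent, read after 1 h at ambient temperature.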
Sfp PPTase inh – Sfp phosphopantetheinyl transferase inhibition. Q9F4F7. Potency, µM, inactives show max response, negative = inhibition, usual class: inhibitors. 310,000 compounds, 3.5% hits. Biochemical Sfp PPTase activity, qHTS; active means well fitted inhibition curve with a large enough effect; inconclusive means small, poorly fitted or top-dose-only effect, or another doubt; inactive means no such curve, though single readings can be large or run the other way;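 further: the enzyme is Sfp with the accession as filed and its product quenches rhodamine fluorescence; potency means the concentration at half of the fitted maximal effect; 0% = enzyme reaction without inhibitor and -100% = no enzyme wells; top concentration of the series not given in the record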
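Reaction rates are the 30-min fluorescence difference (ex 525, em 598 nm) in wells containing 15 nM Sfp, 5 uM rhodamine-CoA and 12.5 uM BHQ-2-YbbR at pH 7.6 with 10 mM MgCl2.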
Six1-Eya2 blk – Six1/Eya2 interaction inhibition | 360,000 compounds, 0.56% hits | AlphaScreen GST-Six1/His-Eya2 binding, biochemical; active compounds read low; control for the full effect not named in the record | AID 651725 | activity change, % (test concentration not listed); in the data active = activity change below about -65%; inconclusive = about -30% to -65%; inactive = above about -30%; further: on the % scale 0 is the no-effect control and ±100 the full control effect
Target sequence (O00167 whole entry, looked up): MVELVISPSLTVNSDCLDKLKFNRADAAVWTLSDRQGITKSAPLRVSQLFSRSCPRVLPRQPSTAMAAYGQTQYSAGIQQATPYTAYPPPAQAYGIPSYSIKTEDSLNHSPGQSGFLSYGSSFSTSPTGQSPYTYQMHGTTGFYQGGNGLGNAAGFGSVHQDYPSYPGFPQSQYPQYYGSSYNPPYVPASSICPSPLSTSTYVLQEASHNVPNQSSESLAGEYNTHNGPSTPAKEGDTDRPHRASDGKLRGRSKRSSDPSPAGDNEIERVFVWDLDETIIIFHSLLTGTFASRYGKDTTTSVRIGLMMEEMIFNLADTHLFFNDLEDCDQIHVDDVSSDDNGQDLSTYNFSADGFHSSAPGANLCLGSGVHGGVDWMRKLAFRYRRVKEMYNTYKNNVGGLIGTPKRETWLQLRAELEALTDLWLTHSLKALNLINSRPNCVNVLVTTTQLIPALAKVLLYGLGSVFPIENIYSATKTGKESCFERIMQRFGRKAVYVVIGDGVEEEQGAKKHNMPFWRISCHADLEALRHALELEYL
Target sequence (Q15475 whole entry, looked up): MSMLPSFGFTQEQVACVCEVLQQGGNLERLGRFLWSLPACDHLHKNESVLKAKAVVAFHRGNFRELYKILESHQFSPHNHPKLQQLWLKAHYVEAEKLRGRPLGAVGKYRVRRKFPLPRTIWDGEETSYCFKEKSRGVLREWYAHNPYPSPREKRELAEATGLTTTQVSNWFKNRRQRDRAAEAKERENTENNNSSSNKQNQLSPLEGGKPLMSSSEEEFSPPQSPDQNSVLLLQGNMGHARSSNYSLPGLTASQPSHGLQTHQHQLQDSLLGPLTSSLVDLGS
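Homogeneous AlphaScreen proximity assay pairing GST-Six1 with His-tagged Eya2 (added as 5X mix: 250 nM and 500 nM) in 50 mM Tris pH 8.0, 300 mM NaCl, 1 mM TCEP. Glutathione donor and nickel acceptor beads; 1 h, 37 °C, dark.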
CtBP-E1A inh – blocks the CtBP interaction with E1A; AlphaScreen GST-E1A/His-CtBP binding, 1536-well; active compounds read low; control for the full effect not named in the record; activity change, % (concentration not given with the values); 340,000 compounds, 0.49% hits; in the data active means activity change below about -65%; inconclusive means about -30% to -65%; inactive means above about -30%; further: on the % scale 0 is the no-effect control and ±100 the full control effect
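GST-E1A and His-tagged CtBP (125 nM each as 5X stock) were preincubated with pin-transferred compound for 2 h at 37 °C in the dark, then glutathione donor and nickel acceptor beads were added for 1 h before AlphaScreen reading.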
TRPV1 PAM – potentiators of human vanilloid receptor 1 (TRPV1) | 320,000 compounds, 0.02% hits | TRPV1-expressing cells, Fluo-8 calcium influx, capsaicin EC20 potentiation; host cell line not named in the record; control for the full effect not named in the record | Q8NER1 | potentiation, % at 8.33 µM; active means potentiation above 80%; inconclusive means 30% to 80%; inactive means below 30%; further: 0% is about no effect
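Fluo-8 calcium influx in TRPV1-expressing cells, kinetic read (ex 480/em 520 nm). Compound added and read 3 min for agonist activity, followed by capsaicin at EC20 final and 2 min further read for enhancement.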
PINK1 modulator – changes PINK1 expression; PINK1 immunofluorescence, high-content cytometry, 24 h; Potency, µM (top dose mostly 76.6 µM), for the others: at the highest dose activation (PINK1 increase), actives largely listed as activators; 410,000 compounds, 0.2% hits; AID 624263; active = well fitted activation curve with a large enough effect; inconclusive = small, poorly fitted or top-dose-only effect; inactive = flat fitted curve, though single readings scatter; cell line not stated here;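 further: potency means the concentration at half of the fitted maximal effect; % of control where 0% means no effect; nearly all actives have a fitted effect of over 65% in size; a mitochondrial uncoupler was the plate control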
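Measures PINK1 amount and localization on or inside mitochondria by immunofluorescence. Stable cells get compounds at 5 concentrations for 24 hours before fixation and staining; CCCP controls included.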
D2 PAM – positive allosteric modulators of human D2 dopamine receptor; P14416; DiscoveRx D2 beta-arrestin cells, luminescence, 90 min; 100% = 57 uM dopamine signal; potentiation, % (no concentration beside the values); 360,000 compounds, 0.23% hits; active = potentiation of 50% or more; inconclusive = 30% to 50%; inactive = 30% or less;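 further: compound concentration not given in the record; tested on top of an EC20 dose of dopamine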
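PathHunter beta-arrestin assay in DiscoveRx D2 cells. Compounds were added with an EC20 of dopamine (50 nM final) for 90 min at 37 deg C. Luminescence was read 1 h after detection reagent, with 57 uM dopamine as the EC100 control.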
Active calls of the source: *; ? = inconclusive; . = no result given; [ ] = another dose, or the depositor's remark.

Each structure is followed by: Six1-Eya2 blk	D2 PAM	CtBP-E1A inh	Sfp PPTase inh	TRPV1 PAM	D2 ag	PINK1 modulator
> C#CCOCCOCCOCCNc1nc(N2CCN(C(=O)[C@H]([C@@H](C)CC)n3cc(CCCN=C(N)N)nn3)CC2)nc(N2CCN(C(=O)[C@H](CCCCN)n3cc(CCCC)nn3)CC2)n1
→ -7	-10	.	4%	26	-3.2	0.7%
> CN(c1ccccc1)S(=O)(=O)c1ccc(C(=O)Nc2nnc(-c3ccco3)o2)cc1
→ 0	-6	-9	-17%	-21	-3.7	0.8%
> O=C(c1ccc(Cl)c([N+](=O)[O-])c1)N(Cc1ccc(F)cc1)C1CCS(=O)(=O)C1 (stereo unspecified)
→ -16	2	-2	0%	3	-1.9	-0.2%
> O=C(NCCc1cn2ccccc2n1)c1cc(COc2ccc3ncccc3c2)on1
→ 14	7	-10	2%	3	12	0.3%
> Cn1ccc(C(=O)NC(=S)N2CCSCC2)n1
→ -6	-1	-13	45µM*	-1	2.4	2.8%
> Cc1cccc(Cc2nnc(NC(=O)c3cccc(S(=O)(=O)N4CCOCC4)c3)s2)c1
→ 7	-14	10	6%	13	-4.4	3.7%
> COCC1CCN(Cc2nc(-c3ccc4c(c3)OCO4)no2)C1 (stereo unspecified)
→ -1	-2	1	19%	-6	-1.8	1.3%
> CSC1=C(C#N)C(c2cccc(Br)c2)CC(=O)N1 (stereo unspecified)
→ 0	-6	3	14%	0	-2.1	5.5%[38.3 µM]
> C/C(O)=c1/ccc2cccc3nc(C)nc1c23
→ 0	26	10	-6%	3	6.3	.
> c1ccc(CSc2nnc(-c3ccncc3)o2)cc1
→ 1	-6	-4	-3%	5	-1.8	-3.1%[38.3 µM]

No new results follow: entries from further up.
Each structure is followed by: Six1-Eya2 blk	D2 PAM	CtBP-E1A inh	Sfp PPTase inh	TRPV1 PAM	D2 ag	PINK1 modulator
> O=C(c1ccc(Cl)c([N+](=O)[O-])c1)N(Cc1ccc(F)cc1)C1CCS(=O)(=O)C1 (stereo unspecified)
→ -16	2	-2	0%	3	-1.9	-0.2%
> O=C(NCCc1cn2ccccc2n1)c1cc(COc2ccc3ncccc3c2)on1
→ 14	7	-10	2%	3	12	0.3%
> Cn1ccc(C(=O)NC(=S)N2CCSCC2)n1
→ -6	-1	-13	45µM*	-1	2.4	2.8%
> Cc1cccc(Cc2nnc(NC(=O)c3cccc(S(=O)(=O)N4CCOCC4)c3)s2)c1
→ 7	-14	10	6%	13	-4.4	3.7%
> COCC1CCN(Cc2nc(-c3ccc4c(c3)OCO4)no2)C1 (stereo unspecified)
→ -1	-2	1	19%	-6	-1.8	1.3%
> CSC1=C(C#N)C(c2cccc(Br)c2)CC(=O)N1 (stereo unspecified)
→ 0	-6	3	14%	0	-2.1	5.5%[38.3 µM]
> C/C(O)=c1/ccc2cccc3nc(C)nc1c23
→ 0	26	10	-6%	3	6.3	.
> c1ccc(CSc2nnc(-c3ccncc3)o2)cc1
→ 1	-6	-4	-3%	5	-1.8	-3.1%[38.3 µM]

Other compounds.
Each structure is followed by: Six1-Eya2 blk	D2 PAM	CtBP-E1A inh	Sfp PPTase inh	TRPV1 PAM	D2 ag	PINK1 modulator
> O=C(Nc1nncs1)c1ccc(N2C(=O)C3C4C=CC(C4)C3C2=O)cc1 (stereo unspecified)
→ 0	-16	8	7%	-2	-0.2	4.2%
> O=C(COc1ccc(Cl)cc1)N1CCN(c2ccc([N+](=O)[O-])c(N3CCOCC3)c2)CC1
→ -22	0	-15	8%	3	-7.3	8.4%
> CCOC(=O)C1=C(c2ccccc2)OC(N)=C(C#N)C1C(C)C (stereo unspecified)
→ 0	18	8	7%	-14	-0.2	-0.2%
> O=C(CSc1n[nH]c(-c2ccco2)n1)Nc1ccccc1Cl
→ -1	-2	-9	7%	-10	-4.0	-2.0%
> Cc1cc(C)c(OCCCCCNCCO)c(C)c1
→ -1	-11	0	-7%	24	-1.0	-4.3%[38.3 µM]
> COc1ccc(CCN2C(=O)C3C4C=CC(C3C2=O)C2C(=O)N(CCc3ccc(OC)c(OC)c3)C(=O)C42)cc1OC (stereo unspecified)
→ 1	-2	3	12%	?	-1.0	5.3%[38.3 µM]
> O=C1c2ccccc2C(=O)N1N=Cc1ccc2c(c1)OCO2
→ 2	-5	-1	.	.	-2.1	2.0%
> O=[N+]([O-])c1ccc(P(=O)(Cc2ccccc2)c2ccccc2O)cc1 (stereo unspecified)
→ 3	2	-1	4%	-1	0.2	4.5%
> Cc1cccc(NC(=O)CSc2nc(C3CC3)nc3ccccc23)c1
→ -3	0	-1	-4%	9	2.2	7.2%
> COc1cc(CC(=O)NCCc2ccc(S(N)(=O)=O)cc2)cc(OC)c1OC
→ 1	-4	11	17%	2	0.7	0.9%
> CCNc1nc(NCC)nc(SCCOc2ccc(C)cc2)n1
→ 9	2	8	13%	0	1.3	11%
> CCOC(=O)Cn1nnc(-c2ccc(OCC(C)C)cc2)n1
→ 5	-5	2	9%	26	-2.1	3.7%[38.3 µM]
> Cc1ccccc1CN1CCC(C(=O)Nc2ccc(Oc3cccnc3)cc2)CC1
→ -2	-29	0	25%	-6	-1.6	-1.5%
> Cc1cccc(NS(=O)(=O)c2ccc(C(=O)NCCCN3CCCC3=O)cc2)c1C
→ 5	-1	-22	.	-1	-0.5	-0.4%
> O=C(CN1C(=O)CC(c2ccccc2)=Nc2ccccc21)NC1CCCCC1
→ -11	7	-1	14%	0	-2.3	0.7%
> O=C(O)c1ccc(CSc2ccccn2)cc1
→ 1	-2	-9	18%	-4	-0.4	-1.7%
> Cc1ccc2[nH]cc(S(=O)(=O)c3ccc(C(C)C)cc3)c(=O)c2c1
→ 4	2	11	6%	-4	0.3	3.3%
> COc1ccccc1S(=O)(=O)NCc1ccc(C(=O)NC(C)c2ccccn2)cc1 (stereo unspecified)
→ 8	2	.	.	-1	-2.1	0.9%
> CN(C)c1cccc(NC(=O)C2Cc3c(-c4cccnc4)ccnc3O2)c1 (stereo unspecified)
→ -4	-8	-26	.	.	-3.4	0.4%
> C=CCn1c(SCC(=O)O)nnc1-c1ccc(C(C)(C)C)cc1
→ 0	-3	-1	6%	4	-0.8	3.2%
> CCOC(=O)C1CCN(S(=O)(=O)c2ccc(CN3C(=O)c4cccnc4C3=O)cc2)CC1
→ -1	-12	-22	-3%	18	-5.2	1.3%
> C=CCn1c(NCCO)nc2sc3c(c2c1=O)CCC3
→ 0	-4	-2	13%	-6	-3.3	0.1%
> CN(C)c1cccc(C(=O)OCC(=O)NC2CCCC2)c1
→ 18	-1	.	0%	-17	-5.2	3.9%
> COc1ccc(OC)c(S(=O)(=O)NC(C)c2ccc(-n3ccnc3)cc2)c1 (stereo unspecified)
→ 7	2	.	.	-2	-1.3	-1.3%
> O=c1c(Cc2ccccc2)c(O)ccn1Cc1ccc2c(c1)OCO2
→ 5	-10	.	9%	0	2.5	-1.0%
> Cc1[nH]c2ccc(C(=O)NC3CCCC3)cc2c1C
→ -8	-2	-24	.	-4	-5.2	-1.4%
> C=CCOC(=O)C1=C(C)NC(=O)NC1c1ccc(N(C)C)cc1 (stereo unspecified)
→ -12	-4	-6	13%	10	3.3	0.3%
> Cc1onc(-c2ccccc2)c1-c1ccnc(N)n1
→ 4	-1	-5	13%	-1	-3.6	0.8%
> Cc1ccc(S(=O)(=O)Nc2ccccc2C(=O)Nc2sccc2C(=O)NN(C)C)cc1
→ -4	1	1	2%	?	1.1	1.5%
> Cc1ccc(C)c(NC(=O)C(=O)NCc2ccccn2)c1
→ -2	-8	-17	20%	3	-3.0	-0.7%
> COCCNC(=O)c1ccc(N2CC3CC(C2)c2cccc(=O)n2C3)c(NC(=O)c2cc(OC)cc(OC)c2)c1 (stereo unspecified)
→ -7	-11	-8	8%	-1	9.4	1.1%
> Cc1ccc(S(=O)(=O)NCC(C)n2nc(C)cc2C)cc1 (stereo unspecified)
→ 13	1	0	12%	21	3.2	3.4%
> COc1ccc(C2=Nn3c(nnc3-c3cccnc3)SC2)cc1
→ ?	-11	?	14%	-4	-2.2	12%[38.3 µM]
> O=C(O)C(Cc1ccccc1)N1C(=O)c2cccc3cccc(c23)C1=O (stereo unspecified)
→ 0	-1	6	22%	4	-0.7	-1.7%
> O=C(O)CCN1CC2([N+](=O)[O-])CC=C(OCCO)C([N+](=O)[O-])(C1)C2 (stereo unspecified)
→ 8	-2	-3	7%	13	-6.6	4.5%
> O=C(NC(=S)Nc1ccccc1N1CCN(C(=O)c2ccccc2)CC1)c1ccccc1F
→ -16	-14	-9	1%	-10	-4.9	0.1%
> Cc1ccc(C)c(NC(=O)C2CCCN(S(=O)(=O)c3cccnc3)C2)c1 (stereo unspecified)
→ 0	-13	-15	-1%	?	-2.8	-0.9%
> CCOC(=O)C1(Cc2cccc(F)c2)CCN(C(=O)c2cscn2)CC1
→ 3	0	6	15%	-12	-2.7	3.2%
> CN(C)/C(CN1CCCCC1)=C1\N=C(c2ccccc2)OC1=O
→ ?	-16	-30	3%	.	-0.4	1.9%[38.3 µM]
> COc1ccc(NC(=O)C2CCC(CNS(=O)(=O)c3csc(C(N)=O)c3)CC2)cc1OC (stereo unspecified)
→ 25	-6	.	10%	19	3.0	-0.9%
> Cc1cccc(C)c1OCC(=O)N/N=C/c1cccn1C
→ -12	-10	7	-5%	6	-2.4	-0.7%[38.3 µM]
> O=C(NCc1ccc2c(c1)OCO2)C1CCC(=O)N1C1CCCCC1 (stereo unspecified)
→ 8	1	5	10%	-12	-6.0	0.7%
> COc1ccc(S(N)(=O)=O)cc1C(=O)OCC(=O)N1c2ccccc2NC(=O)C1(C)C
→ -7	-7	2	.	.	0.8	-0.4%
